# BJeLR lethal: kills HRASV12-expressing BJeLR cells | BJeLR (HRASV12) viability, CellTiter-Glo ATP luminescence, 48 h; reference of the scale not given here | inhibition, % (no concentration beside the values) | 0.17% of 300,000 active | AID 1554;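 active = replicate mean above 50%; inconclusive = above 50% but judged a plate artefact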;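 also: 50 nL library stock added to about 25 µL; numbers are from one replicate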
# RN4220 kill: kills Staphylococcus aureus RN4220; S. aureus RN4220 growth, OD600, 16 h; inhibition, % (test concentration not listed); 0.33% of 330,000 active; AID 1259311;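 active = z-score of -3 or lower and OD600 up to 0.18 on both plates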;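 also: plate controls were untreated cells for no effect and reference antibiotic for full effect; stock transfer was 100 nL into about 80 µL; one replicate is shown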
# Mtb hypoxia rep: reduces hypoxia-regulated biosensor signal in M. tuberculosis; AID 1159583; 0.1% of 300,000 active; fluorescence inhibition, % (no concentration beside the values); M. tuberculosis hypoxia-regulated fluorescent reporter, fluorescence;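 active = 35 to 45% if threefold the growth effect, above 45% if 1.5-fold the growth effect; inactive = the rest, general growth blockers included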;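 also: wells of about 50 µL received 100 nL stock; 0% = vehicle wells and 100% = reference inhibitor wells; whole bacteria with a GFP reporter of the hypoxia response; strong numbers were not always called active; many hits fall short of the cut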
# Sa ugtP lethal: growth inhibition of S. aureus ugtP deletion strain. S. aureus RN4220 ugtP deletion, OD600 growth, 16 h; some inactives read as strong as hits. growth inhibition, % (no concentration beside the values). 0.54% of 330,000 active. AID 1259309;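 active = z-score under -3 and OD600 up to 0.15 on both plates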;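 also: plate controls were untreated wells for no effect and antibiotic for full effect; wells of about 80 µL received 100 nL stock; the first replicate is given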
# PrP UTR inh: suppresses PrP 5' UTR mRNA reporter expression. cell-based PrP 5' UTR mRNA reporter, plate reader. inhibition, % (test concentration not listed). 0.35% of 340,000 active. AID 488862;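 active = every replicate at 50% or more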;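 also: 0 = median of the neutral control wells; tested in H4 reporter cells; numbers are from one replicate; inactives centre near -14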
# Bead autofluor: compound fluorescence in toxin protease inhibitor counterscreen; fluorescence intensity (no concentration beside the values); compound autofluorescence counterscreen, microsphere flow cytometry; stronger effect = higher value; 3.1% of 360,000 active;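 active = at least 3 SD above the mean of all compounds, about 16000 in these data; inconclusive = too few beads counted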;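 also: 100 nL of 1 mM stock went into each well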
# Mtb hypoxia rep growth: second read-out of Mtb hypoxia rep, no call of its own (marks repeat the call); growth inhibition, %; measured here: M. tuberculosis growth (absorbance);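 0% = vehicle and 100% = reference antibiotic; read after six days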
# * marks the source's active call; other numbers are inactive results; ? = inconclusive; . = not tested or not shown; & = joins results of further samples.
SMILES,BJeLR lethal,RN4220 kill,Mtb hypoxia rep,Mtb hypoxia rep growth,Sa ugtP lethal,PrP UTR inh,Bead autofluor
COc1ccc(CCN(C)C(=O)CCNS(=O)(=O)c2ccccc2C(F)(F)F)cc1OC,.,4.2,0,3,-1,-6,3914
COc1ccc(CCNC(=O)CCOc2ccc(C(C)(C)C)cc2)cc1OC,-2,0.5,13,-1,-2,-23,?
COc1cccc(COc2ccc3c(C)c(Cc4ccccc4)c(=O)oc3c2)c1,0,-6.8,.,.,-7,-3,4149
NC(=O)C1CCN(c2nc(-c3ccc4ccccc4c3)cs2)CC1,.,4.4,8,8,1,-12,3234
CCN(CC(=O)NCc1ccc(F)cc1)C(=O)CN1CCN(c2ccccc2OC)CC1,3,0.9,-6,10,14,-11,3980
COc1cc(C(=O)NNC(=O)c2ccc3ccccc3n2)cc(OC)c1OC,.,-1.0,15,8,-2,-8,3864
C#CCOCCOCCOCCNc1nc(N2CCN(C(=O)Cn3cc(CCO)nn3)CC2)nc(N2CCN(C(=O)C(Cc3ccc(O)cc3)n3cc(CCO)nn3)CC2)n1 (stereo not given),.,4.6,12,-2,7,.,.
COc1ccccc1C(=O)N1CCNC(=O)C1CC(=O)Nc1cccc(C)c1 (stereo not given),-6,4.2,10,11,1,-14,9216
NS(=O)(=O)c1ccc(NC(=S)N2CCN(c3cccc(Cl)c3)CC2)cc1,4,.,.,.,.,-17,2558
Cc1ccc(/C([O-])=C(/C(=S)NCc2ccccc2)[n+]2cccc(CO)c2)cc1[N+](=O)[O-],.,4.3,10,5,10,-32,5004

# 5 compounds already listed, ordered by SMILES length, high to low.
SMILES,BJeLR lethal,RN4220 kill,Mtb hypoxia rep,Mtb hypoxia rep growth,Sa ugtP lethal,PrP UTR inh,Bead autofluor
Cc1ccc(/C([O-])=C(/C(=S)NCc2ccccc2)[n+]2cccc(CO)c2)cc1[N+](=O)[O-],.,4.3,10,5,10,-32,5004
COc1ccc(CCN(C)C(=O)CCNS(=O)(=O)c2ccccc2C(F)(F)F)cc1OC,.,4.2,0,3,-1,-6,3914
CCN(CC(=O)NCc1ccc(F)cc1)C(=O)CN1CCN(c2ccccc2OC)CC1,3,0.9,-6,10,14,-11,3980
COc1cccc(COc2ccc3c(C)c(Cc4ccccc4)c(=O)oc3c2)c1,0,-6.8,.,.,-7,-3,4149
COc1ccc(CCNC(=O)CCOc2ccc(C(C)(C)C)cc2)cc1OC,-2,0.5,13,-1,-2,-23,?

# Remaining list, next part
SMILES,BJeLR lethal,RN4220 kill,Mtb hypoxia rep,Mtb hypoxia rep growth,Sa ugtP lethal,PrP UTR inh,Bead autofluor
O=C(NCCCCCCNC(=O)c1ccncc1)c1ccncc1,0,0.0,-5,6,-1,-7,4000
C(=N\N1CCN(Cc2cccc3ccccc23)CC1)/c1cccs1,2,.,.,.,.,-34,5868
CCSc1nc2c(c(=O)[nH]c(=O)n2C)n1CC(O)COc1ccccc1 (stereo not given),-7,10,14,7,-4,9,4661
CN(Cc1nc2ccccc2n1C)C(=O)c1ccco1,8,3.0,0,3,7,-19,5517
O=C(c1ccco1)N1CCc2[nH]nc(-c3ccc(Cl)cc3)c2C1,8,6.5,8,4,10,-9,?
CSCCC(NC(=O)COc1ccccc1)C(=O)N(C)CC(=O)Nc1ccc(Cl)cc1 (stereo not given),.,-0.1,5,-3,-1,-18,3663
Cc1cc(Cl)cc2sc(=S)[nH]c12,.,34,18,12,23,-18,3428
O=[N+]([O-])c1cc(NS(=O)(=O)c2ccc(Cl)nc2)ccc1Cl,-2,15,-5,-5,4,-27,?
Cc1ccc(OCCn2c(CCNC(=O)C(C)C)nc3ccccc32)cc1,11,9.2,14,1,-12,1,3178
CCOc1ccc(-c2cc(C(=O)N3CCN(c4ccccn4)CC3)c3ccccc3n2)cc1,3,-2.3,4,10,-5,-137,22531*

# One compound at a time, from the list above.
# CCSc1nc2c(c(=O)[nH]c(=O)n2C)n1CC(O)COc1ccccc1 (stereo not given) in the list: BJeLR lethal = -7; RN4220 kill = 10; Mtb hypoxia rep = 14; Mtb hypoxia rep growth = 7; Sa ugtP lethal = -4; PrP UTR inh = 9; Bead autofluor = 4661
# O=C(NCCCCCCNC(=O)c1ccncc1)c1ccncc1 in the list: BJeLR lethal = 0; RN4220 kill = 0.0; Mtb hypoxia rep = -5; Mtb hypoxia rep growth = 6; Sa ugtP lethal = -1; PrP UTR inh = -7; Bead autofluor = 4000

# Other results:
SMILES,BJeLR lethal,RN4220 kill,Mtb hypoxia rep,Mtb hypoxia rep growth,Sa ugtP lethal,PrP UTR inh,Bead autofluor
CN1CC(c2ccccc2)C2(SC(=S)N(Cc3ccco3)C2=O)C12C(=O)Nc1ccccc12 (stereo not given),-9,-4.6,2,4,0,-17,11485
Cc1ccc(-c2nnc(N3CCN(c4ccccn4)CC3)c3ccccc23)cc1,14,-3.4,10,35,-4,-1,4597
CCc1ccc(C2C(C(C)=O)=C(C(=O)OC)Nc3nnnn32)cc1 (stereo not given),5,11,.,.,4,-15,3569
S=C(NCCCN1CCOCC1)Nc1ccc(-c2nc3ccccc3[nH]2)cc1,-1,20,9,4,-69,-18,4387
CCOC(=O)C1C2COc3ccc(Br)cc3C2N2C(=O)CNC(=O)[C@@]12C (stereo not given in full),.,4.3,-7,2,-13,.,.
COC(=O)C(NS(=O)(=O)c1ccc(C)cc1)c1ccccc1 (stereo not given),3,5.1,-1,3,0,-28,2056
CCOC(=O)C(=CN=C(N)Nc1nc2ccccc2o1)C(=O)OCC,0,6.4,7,5,2,-32,2555
CCOC(=O)C1CCN(C(=O)COC(=O)CSc2ccccc2C)CC1,.,4.0,4,7,1,-8,3326
Cc1ccc(-c2csc(=Nc3cccnc3)n2CCCn2ccnc2)cc1C,13,1.0,-5,-2,6,33,2748
CCOCCn1c(CN2CCOCC2)nc2c1c(=O)[nH]c(=O)n2C,9,-2.1,6,5,3,-11,5574
Cc1ccc(N2CCN(N=Cc3cccs3)CC2)cc1,.,11,10,11,-3,.,.
O=C(Nc1cccc2nsnc12)C1CC(=O)N(c2ccccc2)C1 (stereo not given),-3,-0.7,.,.,-1,-2,4153
O=C(N/N=C/c1ccc2cccc(OCc3ccccc3)c2n1)c1ccc(Cl)cc1,2,.,.,.,.,-19,3754
CC(Oc1ccc2c(-c3ccccc3)cc(=O)oc2c1)C(=O)N[C@H](Cc1c[nH]c2ccccc12)C(=O)O (stereo not given in full),-1,1.1,.,.,-8,-7,5588
Cc1[nH]c(=O)c(C#N)c2c1CSC(C)(C)C2,-16,3.0,8,-4,15,.,11326
CCCS(=O)(=O)N1CCN(c2ccccc2F)CC1,-5,2.5,.,.,-4,-7,5841
COCCNC(=O)c1ccccc1NC(=O)c1ccccc1SC,1,-2.9,-3,-4,2,-21,3237
Cc1ccc(Oc2nc3ccccc3n3cccc23)cc1,0,-10,.,.,96*,1,2314
Cc1cccc(C(=O)NCC(=O)OCC(=O)N(C)CC(=O)Nc2ccccc2Cl)c1,.,0.3,-8,-7,1,-13,2675
COc1ccc(C)cc1S(=O)(=O)N1CCCC(N2CCOCC2)C1 (stereo not given),-4,1.0,-5,2,4,-17,3801
CC1CC(CC(C)C(=O)Nc2nncs2)C(=O)O1 (stereo not given),-6,1.9,-1,2,4,-20,22855*
COc1ccc(C(C(=O)NC2CCCCC2)N(Cc2cccnc2)C(=O)c2snc(C(N)=O)c2N)cc1 (stereo not given),2,-0.3,-3,8,4,9,6081
COc1cccc(NC(=O)C(C)(C)C)c1,.,3.8,6,6,-1,-24,2806
CCCCOCCCn1c(N)c(C(=O)OC(C)COC)c2nc3ccccc3nc21 (stereo not given),12,5.4,.,.,-7,-11,4780
O=C(NC1CC=CCC(CC(=O)N(CCO)Cc2ccccc2)C(=O)NC(Cc2ccccc2)COC1=O)OCC1c2ccccc2-c2ccccc21 (stereo not given),.,-2.4&-4.8,2&-4,4&6,-3&-18,.,.
O=C(N/N=C/C=C/c1ccc2c(c1)OCO2)c1ccc([N+](=O)[O-])cc1,-6,.,.,.,.,-4,8446
CCCc1nnc(NC(=O)Cn2c(=O)sc3ccccc32)s1,2,0.3,18,6,4,-38,9125
CCOCCCNC(=S)N1C2CCC1CC(NC(=O)NC13CC4CC(CC(C4)C1)C3)C2 (stereo not given),-5,2.7,9,2,2,-9,7879
COCCN(CCOC)S(=O)(=O)c1ccc(C(=O)Nc2nnc(C)o2)cc1,-4,3.8,.,.,9,-9,4394
Cc1ccccc1N1C(=O)NC(=O)/C(=C\c2cc(Br)c(N3CCOCC3)o2)C1=O,4,1.7,11,2,11,-2,4861
O=C(N/N=C/C=C/c1ccccc1)C(O)c1ccccc1 (stereo not given),-2,.,.,.,.,-29,11511
COc1cc(NC(=O)c2ccccc2)c(OC)cc1Cl,-2,-11,0,8,-4,-33,2819
C=CCN(CC(=O)Nc1cccnc1)S(=O)(=O)c1ccc(Cl)cc1,.,4.9,9,4,7,-13,2788
COc1cc(-n2c(=O)c3ccccc3n(Cc3cccnc3)c2=O)cc(OC)c1OC,-2,-0.3,.,.,-4,-26,2977
Cc1ccc(-c2nn(-c3ccccc3)cc2/C=N/O)cc1,-8,.,.,.,.,-4,3313
Cn1nc(C(C)(C)C)cc1NC(=O)Nc1cc(Cl)cc(Cl)c1,6,.,.,.,.,-15,4319
Cc1ccccc1OCC(=O)NN1C(=O)C2C3C=CC(O3)C2C1=O (stereo not given),5,-2.2,-3,17,-6,-1,3463
O=C(O)c1ccc(NC2OCC(O)C(O)C2O)cc1 (stereo not given),.,8.5,5,7,2,.,.
CC(C)CC(CN=[N+]=[N-])N1CCN(Cc2ccccc2)CCC1=O (stereo not given),.,4.8,0,9,2,.,.
COc1ccc(Cl)c(Cn2c(NCC(C)O)nc3c2c(=O)n(C)c(=O)n3C)c1 (stereo not given),2,1.5,.,.,0,-2,3385
CNC(=O)C1CCN(S(=O)(=O)c2c(C)noc2/C=C/c2ccc(C)cc2)CC1,-6,.,.,.,.,-9,6564
Cc1ccc(CNC(=O)c2cc(S(=O)(=O)N3CCCCC3)ccc2N2CCOCC2)cc1,.,-5.0,-12,-1,-6,-27,3736
O=C(COC(=O)[C@H](Cc1ccccc1)NC(=O)c1cccs1)Nc1c(Cl)cccc1Cl,15,4.7,-2,0,5,-2,2410
COc1nc(N)c(S(=O)(=O)c2ccccc2)cc1C#N,6,4.7,8,6,8,-9,22871*
Cc1cccc(N2CCN(C(=O)C(C)C)CC2)c1C,3,3.6,.,.,4,-15,2882
COC(=O)C1=C(C)N(C)C(=S)NC1c1ccccc1 (stereo not given),-17,3.4,6,4,0,-17,1999
COc1cc([N+](=O)[O-])cc(/C=N/NC(=O)Cn2cncn2)c1O,2,.,.,.,.,-6,4632
O=C(NN=Cc1cccnc1)c1ccccc1[N+](=O)[O-],.,1.9,7,4,8,.,.
COc1ccc(N(C)C(=O)c2cc3c(s2)-c2ccccc2OC3)c(OC)c1,-7,-4.5,.,.,0,-14,4335
COc1ccc(/C=N/NC(=O)Cc2cc(OC)c(OC)cc2[N+](=O)[O-])cc1,-15,.,.,.,.,-2,1889

# Additional structures
SMILES,BJeLR lethal,RN4220 kill,Mtb hypoxia rep,Mtb hypoxia rep growth,Sa ugtP lethal,PrP UTR inh,Bead autofluor
COCCNC(=O)CCCC(=O)NCCOC,-11,1.0,7,7,1,-22,1985
CCC/C(O)=C1\C(=O)CC(C)(C)CC1=NCCO,-6,2.2,.,.,-4,-19,2477
Oc1ccc(N=Nc2ccc(Br)cc2)c(O)c1,0,.,.,.,.,-59,3530
O=c1c2sc3nc(N4CCOCC4)c4c(c3c2ncn1CCc1ccccc1)CCCC4,1,1.7,4,9,5,-12,8583
O=C(CSc1nnc(Cc2ccccc2)o1)Nc1cccc(F)c1,8,4.1,5,1,4,-18,4513
O=C(NN=Cc1ccc2c(c1)OCO2)c1ccc(Br)o1,.,2.0,14,7,-1,.,.
O=C(CCS(=O)(=O)c1cc2c(cc1Cl)NC(=O)CO2)NCCc1ccccc1,10,0.9,14,4,5,-32,5402
O=C(Nc1ccc(N2CCN(C(=O)c3ccccc3)CC2)c(Cl)c1)c1ccco1,-7,4.3,2,12,16,-5,3456

# Screening data (PubChem BioAssay)
